Six1-Eya2 blk: inhibitors of human Six1/Eya2 interaction. Q15475+O00167. AlphaScreen GST-Six1/His-Eya2 binding, biochemical; hits give low values; control for the full effect not named in the record. activity change, % (no concentration beside the values). 0.56% of 360,000 active; in the data active = activity change below about -65%; inconclusive = about -30% to -65%; inactive = above about -30%; also: % is scaled to controls: 0 for no effect and ±100 for the full control effect; compound concentration not given in the record
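Six1/Eya2 binding was read as AlphaScreen signal after compounds were pinned into GST-Six1 plus His-tagged Eya2 (5X stock 250/500 nM) in pH 8.0 Tris/NaCl/TCEP buffer, beads added, then incubated 1 h, 37 C, dark.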
TRPML1 blocker: inhibitors of human TRPML1 channel; Q9GZU1; TRPML1-inducible cells, Ca2+ dye fluorescence, FDSS; hits give low values; inhibition of EC80 agonist-evoked calcium signal; activity change, negative = inhibition, % (no concentration beside the values); 0.02% of 390,000 active; AID 624415; in the data active means activity change below about -50%; inconclusive means about -30% to -50%; inactive means above about -30%;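 also: stimulus is agonist 54-4 at its EC80 concentration; % is scaled to controls: 0 for no effect and ±100 for the full control effect; compound concentration not given in the record; the text of the record puts the active cut at -80%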
Target sequence (Q9GZU1 whole entry, looked up): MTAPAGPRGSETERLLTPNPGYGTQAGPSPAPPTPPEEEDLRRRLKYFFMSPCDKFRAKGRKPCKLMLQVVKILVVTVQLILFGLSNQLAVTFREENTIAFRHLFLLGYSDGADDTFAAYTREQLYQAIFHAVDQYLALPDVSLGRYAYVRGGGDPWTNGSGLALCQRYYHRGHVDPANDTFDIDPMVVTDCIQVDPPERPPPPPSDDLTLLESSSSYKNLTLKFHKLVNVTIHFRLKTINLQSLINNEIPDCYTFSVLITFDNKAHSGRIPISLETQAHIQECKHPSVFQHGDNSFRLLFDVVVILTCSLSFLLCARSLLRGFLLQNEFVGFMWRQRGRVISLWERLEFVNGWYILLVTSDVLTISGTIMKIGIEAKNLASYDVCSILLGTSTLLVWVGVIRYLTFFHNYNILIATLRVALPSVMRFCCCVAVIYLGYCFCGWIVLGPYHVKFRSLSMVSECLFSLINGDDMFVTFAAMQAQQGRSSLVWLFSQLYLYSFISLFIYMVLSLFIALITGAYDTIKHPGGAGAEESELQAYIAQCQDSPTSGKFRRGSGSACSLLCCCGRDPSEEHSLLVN
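Tet-induced TRPML1-DL cells loaded with Ca8 no-wash calcium dye were read kinetically on FDSS. Compound addition was followed by EC80 agonist 54-4 (4 uM final); inhibition was read over 110 s.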
TRPML1 ag: activates the human TRPML1 channel | Q9GZU1 | TRPML1-expressing cells, Ca2+ dye fluorescence, FDSS; host cell line not named in the record; reference of the full effect not given here | activation, % (concentration not given with the values) | 0.12% of 410,000 active | AID 624414; in the data active = activation above about 50%; inconclusive = about 30% to 50%; inactive = below about 30%; also: 0% is about no effect; the text of the record puts the active cut at 80%
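Calcium fluorescence on an FDSS kinetic reader gave the read-out. Tet-induced TRPML1-DL cells were plated overnight, dye-loaded (Ca8 with quencher, 45-90 min, room temperature, dark), then read 110 s after compound addition, and again 110 s after 4uM final 54-4 (EC80).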
CtBP-E1A blk: inhibitors of CtBP/E1A interaction; AlphaScreen GST-E1A/His-CtBP binding, 1536-well; hits give low values; control for the full effect not named in the record; activity change, % (no concentration beside the values); 0.49% of 340,000 active; in the data active means activity change below about -65%; inconclusive means about -30% to -65%; inactive means above about -30%; also: % is scaled to controls: 0 for no effect and ±100 for the full control effect; compound concentration not given in the record
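AlphaScreen with 125 nM GST-E1A and 125 nM His-CtBP (5X stocks) in Tris pH 8.0, 300 mM NaCl, BSA, Tween 20, TCEP. Compounds preincubated 2 h at 37 deg C, then glutathione donor/nickel acceptor beads added for 1 h at 37 deg C in dark.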
TRPV1 PAM: enhances activation of the human vanilloid receptor TRPV1; TRPV1-expressing cells, Fluo-8 calcium influx, capsaicin EC20 potentiation; host cell line not named in the record; control for the full effect not named in the record; 0.02% of 320,000 active; Q8NER1; potentiation, % at 8.33 µM; active means potentiation above 80%; inconclusive means 30% to 80%; inactive means below 30%; also: 0% is about no effect
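TRPV1-expressing cells were cultured overnight at 35.5C and loaded with Fluo-8 calcium dye for 40 to 90 min at room temperature. After a 10 s baseline, compound was added and calcium influx was read kinetically for 3 min (ex 480/em 520 nm).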
D2 potentiator: human D2 receptor positive allosteric modulation; P14416; DiscoveRx D2 beta-arrestin cells, luminescence, 90 min; 100% = 57 uM dopamine signal; potentiation, % (concentration not given with the values); 0.23% of 360,000 active; AID 624464; active = potentiation of 50% or more; inconclusive = 30% to 50%; inactive = 30% or less;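 also: compound concentration not given in the record; tested on top of an EC20 dose of dopamine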
Target sequence (P14416 whole entry, looked up): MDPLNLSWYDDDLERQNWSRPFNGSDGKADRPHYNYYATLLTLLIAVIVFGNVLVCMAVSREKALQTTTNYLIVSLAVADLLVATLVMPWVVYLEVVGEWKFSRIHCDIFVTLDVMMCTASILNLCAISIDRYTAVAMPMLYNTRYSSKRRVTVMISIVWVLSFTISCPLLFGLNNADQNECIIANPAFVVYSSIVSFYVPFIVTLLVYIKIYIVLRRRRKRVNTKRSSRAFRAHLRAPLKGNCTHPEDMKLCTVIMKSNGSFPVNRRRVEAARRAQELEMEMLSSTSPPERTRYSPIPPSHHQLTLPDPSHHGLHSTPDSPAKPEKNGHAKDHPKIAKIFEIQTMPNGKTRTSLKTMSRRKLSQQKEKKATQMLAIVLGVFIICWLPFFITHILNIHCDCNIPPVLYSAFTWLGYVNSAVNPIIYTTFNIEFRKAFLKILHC
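PathHunter beta-arrestin assay in DiscoveRx D2 cells. Compounds were added with an EC20 of dopamine (50 nM final) for 90 min at 37 deg C. Luminescence was read 1 h after detection reagent, with 57 uM dopamine as the EC100 control.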
* marks the source's active call; other numbers are inactive results; ? = inconclusive; . = no result given.

mol	Six1-Eya2 blk	TRPML1 blocker	TRPML1 ag	CtBP-E1A blk	TRPV1 PAM	D2 potentiator
COc1cccc(CNC(=O)CN2C(=O)c3ccccc3S2(=O)=O)c1	-4.3	3.1	-1.1	8.9	8.1	-2.2
CC(=O)N1N=C(c2ccc(Cl)cc2)CC1c1ccco1 (configuration not stated)	-8.8	19.4	2.6	-17.4	0.3	-3.1
O=C(NCCS(=O)(=O)N1CCN(c2ccccc2F)CC1)c1ccc2c(c1)OCO2	11.7	-16.2	-0.2	2.3	1.9	-14.5
COc1ccc(C(=O)NCC(c2cccnc2)N2CCN(c3ccc(F)cc3)CC2)cc1OC (configuration not stated)	-3.9	2.0	-0.7	-6.4	-10.3	-6.9
O=C(COC(=O)c1cccnc1Cl)c1ccc2c(c1)OCCO2	-4.3	-14.5	-0.2	-3.2	5.5	-4.0
Cc1nn(-c2ccc(C(=O)O)cc2)c2c1C(=O)CC(C)(C)C2	2.8	16.6	1.2	6.5	0.9	-0.3
Cc1cc(NC(=O)CSc2nnc(-c3ccc(O)cc3)o2)no1	?	.	.	-28.7	1.7	0.8
COc1ccccc1-c1ccc(SCc2ccc(C)cc2)nn1	2.6	-1.8	3.7	-5.6	18.0	-4.3
Cc1cccc(NC(=S)N/N=C2/CCCCc3ccccc32)c1	?	6.1	1.7	?	2.8	-41.7
O=C(/C=C/c1ccccc1)NCCSCc1ccccc1	-5.4	11.1	1.0	2.2	-19.8	-10.6
OC(CNC1CCCC1)COc1c(F)cc(Br)cc1F (configuration not stated)	6.7	-2.7	-0.2	1.2	-3.4	-10.7
O=C(CN1C(=O)NC2(CCCCC2)C1=O)Oc1ccc2c(C(F)(F)F)cc(=O)oc2c1	16.9	-15.2	6.0	-8.9	-26.9	6.4
N#CCSc1nc2c(c(C3CC=CCC3)c1C#N)CCC2 (configuration not stated)	6.2	17.1	0.4	-0.3	-0.8	-7.3
Cc1nn(CC(=O)Nc2ccc(N3CCOCC3)cc2)c(C)c1Cl	-5.5	23.3	0.9	-1.7	0.8	-3.2
S=C(Nc1cccnc1)N1CCc2ccccc21	2.5	.	.	-12.9	-2.4	-10.7
Cn1c2c(c(=O)n(C)c1=O)C(c1ccccc1Cl)CC(=O)N2 (configuration not stated)	3.5	22.8	0.1	-1.3	?	-5.3
CC(C)(C)c1nc(SCC(=O)Nc2ccc(N3CCOCC3)cc2)c2ccccc2n1	7.5	27.7	1.7	-9.5	6.5	-11.3
COc1ccc(NC(=O)c2cc(=O)c3ccccc3o2)cc1Cl	-7.4	-1.6	-0.2	7.7	5.3	-2.5
CCCCC(CCC(=O)O)(C(=O)OCC)c1csc(Nc2ccc(C)cc2)n1 (configuration not stated)	-3.4	-3.2	-0.4	-25.3	2.3	-1.8
N#C/C(=C\c1c(F)cccc1Cl)c1nn(-c2ccccc2)c(-n2cccc2)c1C#N	-7.7	-12.8	1.3	-3.8	12.4	-3.8
Cc1cccc(CN2CCC(C(N)=O)CC2)c1	1.4	-3.6	0.8	10.0	-2.2	2.1
O=C(Nc1cccc(S(=O)(=O)NC2=NCCC2)c1)c1ccc(OC(F)F)cc1	-13.1	-7.2	0.2	-13.8	4.9	0.3
Cc1cc(C)cc(NC(=S)NN)c1	-22.6	14.3	-0.7	0.3	2.1	-3.8
CCOc1ccc(CNC(=O)c2cccc(NC(=O)C3=C(C)OCCS3)c2)cc1	-8.0	9.1	-0.8	.	-15.3	-14.1
NC(=O)C1(N2CCCCC2)CCN(C(=O)c2cc(COc3c(F)cccc3F)on2)CC1	5.0	-1.6	1.4	2.1	.	-4.4
O=C(c1cc2ccccc2oc1=O)N1CCSC1c1ccco1 (configuration not stated)	-2.1	-8.7	0.0	2.9	-16.5	-7.6
Cc1nn(C)c(C(=O)Nc2ccc(Br)cc2F)c1Br	1.5	10.4	0.0	1.1	5.3	-14.7
COc1ccccc1CN1CC(C(=O)NCCc2cn[nH]c2)CCC1=O (configuration not stated)	2.1	10.8	0.0	1.9	-6.0	2.3
O=C(CSc1ccccc1)Nc1ccccc1C(=O)O	5.6	20.1	2.0	2.7	?	0.8
O=C1NC[C@@H](CCCCN2C[C@H](Cc3ccccc3)N(CCC3CCCCC3)C(=O)C2=O)N(CCc2ccc(O)cc2)C1=O	?	.	-0.1	-25.3	.	.
O=C(CCS(=O)(=O)c1ccccc1)Nc1ccc(N2CCN(Cc3ccccc3)CC2)cc1	-4.9	-6.4	0.6	-1.2	16.2	-11.6
O=C1CSC(c2ccc(Cl)cc2)N1 (configuration not stated)	2.1	6.4	-0.4	-0.9	-3.0	-15.6
CCc1c(C)sc(NC(=O)Cc2ccccc2OC)c1C(=O)N1CCOCC1	3.2	3.4	-0.6	4.8	-7.4	8.5
COc1ccc(Br)cc1S(=O)(=O)NCCCN1CCOCC1	8.0	-6.9	0.5	.	5.6	-12.9
CC(C)CC1C(=O)N(Cc2cn(CC3CCCCC3)nn2)CCS(=O)(=O)N1Cc1ccc(-c2ccc(Cl)c(Cl)c2)cc1 (configuration not stated)	1.4	-17.3	1.5	3.0	.	0.3
COc1ccc(OC)c(/C=C/C(=O)OCC(=O)NCc2ccco2)c1	0.5	12.0	-0.3	.	-5.2	1.8
Cc1c(C(=O)c2ccc(Cl)c(Cl)c2)cnc2cc3c(cc12)OCO3	-2.7	16.6	2.1	6.4	-5.6	-13.5
CC(C)c1ccc(NC(=S)NN2CCN(C)CC2)cc1	9.2	-19.5	0.6	0.0	-3.2	-1.7
Cc1ccc2cc(C#N)c(N3CCN(C(=O)c4ccccc4)CC3)nc2c1	11.0	17.7	0.2	26.6	-9.4	2.7
N#Cc1ccccc1S(=O)(=O)N1CCN(CC(=O)NC(=O)NC2CCCCC2)CC1	4.6	9.7	0.3	-1.5	8.0	-17.6
Cc1cc(C)nc(NC(=O)c2cccc([N+](=O)[O-])c2)c1	4.0	-9.1	1.5	-4.3	4.5	-7.9
COc1ccc(N(CC(=O)N/N=C/c2cccs2)S(=O)(=O)c2ccc(OC)c(OC)c2)cc1	-11.6	3.0	1.1	11.3	.	-9.7
CCC1(c2ccc(Cl)cc2)NC(=S)N(c2ccccc2)N1 (configuration not stated)	-9.0	10.1	0.9	6.7	7.5	-14.0
COc1ccc(C(=O)NCC(c2ccco2)N2CCc3ccccc3C2)c(OC)c1 (configuration not stated)	-10.6	-4.1	-0.2	-0.9	.	-19.9
Cc1cccc(-n2nc3c([n+]2[O-])CCc2nonc2-3)c1C	2.4	6.9	0.4	6.4	5.8	-10.0
CCc1ccc(C(C)NC(=O)COC(=O)c2ccc(-n3cnnn3)cc2)cc1 (configuration not stated)	0.1	1.2	0.1	.	.	1.3
Cc1cccc2sc(NC(=O)C3CCCN(S(=O)(=O)c4cccc5nonc45)C3)nc12 (configuration not stated)	3.6	5.9	2.1	-2.8	2.6	-11.2
Cc1cccc(CCNC(=O)CCNC(=O)Cn2ccc3ccccc3c2=O)c1	-1.9	-6.4	-0.6	16.0	2.3	-10.6
CCOC(=O)CC(=O)CSc1nc(-c2cccnc2)ccc1C#N	-9.9	-10.1	2.0	7.3	1.9	9.0
CC(=O)Nc1c(C(=O)C2CC2)oc2ccccc12	8.0	-17.7	0.4	6.0	3.4	-4.1
CCC(C)(C)NC(=O)C(c1ccc(OC)cc1)N(Cc1ccc(OC)cc1)C(=O)CCC(=O)Nc1cc(C)on1 (configuration not stated)	12.6	8.0	0.0	0.0	14.3	-1.1
O=C(O)CCc1ccc(-c2ccc(F)cc2)n1CC1CCCO1 (configuration not stated)	-0.8	14.9	0.1	3.8	8.1	-5.4
COc1ccc(OC)c(C2C3=C(N=C4SCC(=O)N42)c2ccccc2CC3)c1 (configuration not stated)	-12.5	-11.7	-0.8	-1.3	24.0	-5.6
Cc1coc2c(C)c3oc(=O)c(CCC(=O)N4C[C@H]5C[C@@H](C4)c4cccc(=O)n4C5)c(C)c3cc12	-16.2	.	.	-7.5	9.3	-19.5
CCOc1cc(/C=N/NC(=O)c2c(-c3ccccc3)noc2C)ccc1O	-15.8	16.2	1.4	-3.9	9.6	-2.3
CCCCCCCCN1C(=O)[C@H](CC(=O)NCc2ccccc2)C[C@@]2(C(=O)OC)CCCCC=C12	-5.9	.	0.7	-7.2	.	.
O=C(Cn1c(=O)sc2ccccc21)NCc1ccco1	-0.5	71.9	-0.7	1.8	2.9	-4.9
CC(=O)/C(=C/c1ccc(N(C)C)cc1)C(=O)c1ccccc1	-4.5	9.2	0.1	2.8	-34.6	-15.5
O=C(CNC(=O)N1CC(=O)Nc2ccccc21)NCCCc1ccccc1	-23.5	4.5	-1.1	-3.7	.	-8.9
COCCNC(=O)c1ccc2c3n(nc2c1)-c1ccc(Cl)cc1CO3	3.0	29.9	-1.2	6.5	-28.8	4.6

Structural class, those above containing a thiophene ring, fused or not
mol	Six1-Eya2 blk	TRPML1 blocker	TRPML1 ag	CtBP-E1A blk	TRPV1 PAM	D2 potentiator
CCc1c(C)sc(NC(=O)Cc2ccccc2OC)c1C(=O)N1CCOCC1	3.2	3.4	-0.6	4.8	-7.4	8.5
COc1ccc(N(CC(=O)N/N=C/c2cccs2)S(=O)(=O)c2ccc(OC)c(OC)c2)cc1	-11.6	3.0	1.1	11.3	.	-9.7

(further entries)
mol	Six1-Eya2 blk	TRPML1 blocker	TRPML1 ag	CtBP-E1A blk	TRPV1 PAM	D2 potentiator
CCN(CC)S(=O)(=O)c1ccc(N2CCOCC2)c(NC(=O)c2cnccn2)c1	-1.5	-4.1	-0.3	6.5	21.4	-2.0
N#C/C(=C\N1CCOCC1)c1ccccc1	7.5	-7.7	0.5	7.1	-26.9	1.6
c1ccc(Cn2nnc3c(NCc4ccc5c(c4)OCO5)nc(C4CC4)nc32)cc1	-0.4	23.9	-0.3	-4.6	16.4	12.7
O=C(c1cccs1)N1CCCC(N2CCN(c3cccc(C(F)(F)F)c3)CC2)C1 (configuration not stated)	-2.3	7.3	0.4	-5.7	13.2	-25.1

Bioassay records as filed in PubChem.
